LANA-H2A inh – blocks KSHV LANA binding to histone H2A/H2B. cell-free LANA-H2A/H2B peptide, fluorescence polarization. 320,000 compounds, 0.6% hits. inhibition, % (no concentration beside the values). Q9QR71; in the data active = inhibition mostly above about 10%, no sharp cut-off; inactive = mostly below about 6.7%;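 note: stock transfer was 7.5 nL into about 10 µL; 0% = median of vehicle wells and 100% = median of positive control wells; one replicate is shown; the record names a cut of 25% in any replicate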
ALR inh – human ALR oxidase inhibition via reduced H2O2 | P55789 | inhibition, % (test concentration not listed) | 290,000 compounds, 3.8% hits | purified ALR, DTT oxidation, H2O2 HRP-luminol luminescence;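 active = mean and each replicate at 75% or more; inconclusive = only one of the two met; inactive = neither met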;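 note: stock transfer was 7.5 nL into about 7.5 µL; 0% = neutral wells and 100% = wells with inactivated enzyme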
Target sequence (P55789 whole entry, looked up): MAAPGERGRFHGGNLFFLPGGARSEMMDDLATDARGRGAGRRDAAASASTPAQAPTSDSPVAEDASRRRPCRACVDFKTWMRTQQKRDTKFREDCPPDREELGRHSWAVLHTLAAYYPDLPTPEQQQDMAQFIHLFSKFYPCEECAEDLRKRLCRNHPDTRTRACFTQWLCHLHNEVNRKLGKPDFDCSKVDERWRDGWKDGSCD
RanGTP-Impb inh – disruptors of Ran-importin-beta complex formation – biochemical, FRET, CFP-Ran, YFP-importin-beta, homogeneous, primary screen. cell-free CFP-Ran/YFP-importin-beta FRET ratio. 300,000 compounds, 1.1% hits. AID 2216. inhibition, % (test concentration not listed);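 active = most replicates above 15%; inconclusive = exactly half above 15%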;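 note: 0% = DMSO wells and 100% = Ran loaded with GDP instead of GTP; wells of about 40 µL received 100 nL stock; the first replicate is given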
Vif A3G – inhibitors of Vif binding to APOBEC3G peptide, primary screen, biochemical, TR-FRET, GST-Vif 1-94, biotin-A3G peptide, dose response retest (AID 1117319). TR-FRET GST-Vif / biotin-A3G peptide binding; higher % means a stronger effect; test concentration not given here; strong numbers were not always called active. 260,000 compounds, 0.57% hits. inhibition, %, or IC50 in µM where a hit was titrated;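 active = above the screen mean plus three standard deviations and confirmed in dose response; inconclusive = results disagree or hit not tested in dose response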;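 note: Vif residues 1-94 fused to GST binding biotinylated APOBEC3G peptide 110-148; 0% = full assay without inhibitor and 100% = GST in place of GST-Vif; retest series ran down from 100 µM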
B2AR ag – human beta-2 adrenergic receptor agonism by FAP | P07550 | Am2.2-beta2AR cells, FAP receptor internalization, flow cytometry; reference of the scale not given here | response, % (concentration not given with the values) | 340,000 compounds, 0.43% hits | AID 504454;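 active = response above a set limit, near 3 SD of response in nonfluorescent compounds, cut at about 42% in these data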;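 note: stock transfer was 100 nL into about 11 µL; a reference agonist was the positive control; negative values mostly stem from fluorescent compounds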
Target sequence (P07550 whole entry, looked up): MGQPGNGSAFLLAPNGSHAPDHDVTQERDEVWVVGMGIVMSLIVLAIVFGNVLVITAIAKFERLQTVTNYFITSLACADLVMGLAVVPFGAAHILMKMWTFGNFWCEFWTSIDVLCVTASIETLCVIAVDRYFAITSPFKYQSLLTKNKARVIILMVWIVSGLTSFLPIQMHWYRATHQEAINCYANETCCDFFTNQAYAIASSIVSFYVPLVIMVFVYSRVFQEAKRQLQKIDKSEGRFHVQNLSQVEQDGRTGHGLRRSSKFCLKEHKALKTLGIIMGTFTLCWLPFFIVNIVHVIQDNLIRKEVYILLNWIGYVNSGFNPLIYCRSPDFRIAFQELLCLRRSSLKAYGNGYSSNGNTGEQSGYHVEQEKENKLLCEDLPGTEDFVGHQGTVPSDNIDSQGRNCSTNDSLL
Calb FLC – C. albicans growth modulation with fluconazole; C. albicans CaCi-2 (fluconazole-resistant clinical isolate) + fluconazole, Alamar Blue growth, 48 h; growth inhibition, % (test concentration not listed); 300,000 compounds, 0.57% hits;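 active = most replicates above 75%; inconclusive = exactly half above 75%; inactive = most below 75%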;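 note: all wells also contain fluconazole at 8 µg/ml as a sub-toxic cotreatment; 0% = median of DMSO wells and 100% = median of geldanamycin control wells; wells of about 8 µL received 7.5 nL stock; the first replicate is given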
HNF4A DNA FP – change in binding of human HNF4 alpha to DNA; HNF4a-FITC DNA binding, fluorescence polarization, 1 h; 360,000 compounds, 0.3% hits; AID 1224865; activity change, % at 10 µM; P41235; in the data active = activity change above about 30%, passing the limit was not always enough;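 note: controls were the assay level and a saturating level of protein; the project sought stronger binding though the title names inhibitors; some compounds called inactive have numbers as strong as hits; positive values seem to mean higher polarization but the record does not say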
Target sequence (P41235 whole entry, looked up): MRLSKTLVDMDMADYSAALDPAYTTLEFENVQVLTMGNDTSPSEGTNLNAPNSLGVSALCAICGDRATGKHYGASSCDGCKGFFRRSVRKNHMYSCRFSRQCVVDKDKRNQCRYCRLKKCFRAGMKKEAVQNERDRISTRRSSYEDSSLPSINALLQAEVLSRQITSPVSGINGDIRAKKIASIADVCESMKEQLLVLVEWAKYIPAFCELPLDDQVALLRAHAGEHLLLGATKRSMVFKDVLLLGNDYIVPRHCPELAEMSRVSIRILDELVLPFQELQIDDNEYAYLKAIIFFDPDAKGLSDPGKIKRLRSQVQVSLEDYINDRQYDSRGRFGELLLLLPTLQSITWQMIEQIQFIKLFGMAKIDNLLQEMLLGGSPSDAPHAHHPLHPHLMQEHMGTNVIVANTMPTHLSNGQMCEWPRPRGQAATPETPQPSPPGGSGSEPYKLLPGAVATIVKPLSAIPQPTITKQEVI
Starred values were filed as active, the others as inactive; i = inactive; ? = inconclusive; · = no result given.

The first 10 compounds (preview)
SMILES | LANA-H2A inh | ALR inh | RanGTP-Impb inh | Vif A3G | B2AR ag | Calb FLC | HNF4A DNA FP
CCOc1ccc(CCNC(=O)CCc2c(C)nc3ncnn3c2C)cc1OCC | 2.4 | 3.6 | -1.3 | ? | 2.7 | -7.1 | -1.2
Cc1cc(S(=O)(=O)Nc2ccc(C(=O)N3CCN(C(=O)c4ccco4)CC3)cc2)ccc1F | 0.8 | -13.7 | 0.0 | 2.8% | 5.0 | 0.1 | -0.2
Cc1ccc(CSc2nnc(SCC(=O)N/N=C/c3c[nH]c4ccccc34)s2)cc1 | · | · | 3.9 | · | 14.2 | -11.6 | 107.9*
Cc1ccc(C(=O)NCC(C)(C)N2CCOCC2)s1 | -0.8 | -8.2 | -2.5 | 1.9% | 2.1 | -2.2 | -0.7
Cc1cc(Nc2ccccc2)n(C(=O)c2ccc(Cl)cc2)n1 | 4.4 | · | -5.1 | 0.0% | 1.1 | -1.5 | -0.7
COc1ccccc1N(C)S(=O)(=O)c1ccc(C(=O)Nc2ccc(C(N)=O)cc2)cc1 | -2.9 | 16.8 | · | · | 17.2 | · | -0.7
CCOc1ccc(NC(=O)CSc2nncc(=O)n2N)cc1 | -5.0 | 95.7* | -1.9 | · | -5.0 | 1.0 | 3.1
O=C(COc1ccc(Cl)cc1)NNC(=O)c1ccc2c(=O)n3c(nc2c1)CCC3 | -2.0 | -4.6 | -2.7 | 1.5% | 4.8 | 1.8 | 1.1
CC(=O)c1cccc(S(=O)(=O)NC2CCSc3ccccc32)c1 (stereo not given) | -0.2 | · | 4.0 | · | 0.7 | 4.4 | 2.6
COc1ccc(N2C(=O)C3CCCN3C2c2cccc(C)c2)cc1Cl (stereo not given) | -1.9 | -5.0 | ? | 5.3% | -10.6 | -14.0 | 5.1

Main list, repeating the preview:
SMILES | LANA-H2A inh | ALR inh | RanGTP-Impb inh | Vif A3G | B2AR ag | Calb FLC | HNF4A DNA FP
CCOc1ccc(CCNC(=O)CCc2c(C)nc3ncnn3c2C)cc1OCC | 2.4 | 3.6 | -1.3 | ? | 2.7 | -7.1 | -1.2
Cc1cc(S(=O)(=O)Nc2ccc(C(=O)N3CCN(C(=O)c4ccco4)CC3)cc2)ccc1F | 0.8 | -13.7 | 0.0 | 2.8% | 5.0 | 0.1 | -0.2
Cc1ccc(CSc2nnc(SCC(=O)N/N=C/c3c[nH]c4ccccc34)s2)cc1 | · | · | 3.9 | · | 14.2 | -11.6 | 107.9*
Cc1ccc(C(=O)NCC(C)(C)N2CCOCC2)s1 | -0.8 | -8.2 | -2.5 | 1.9% | 2.1 | -2.2 | -0.7
Cc1cc(Nc2ccccc2)n(C(=O)c2ccc(Cl)cc2)n1 | 4.4 | · | -5.1 | 0.0% | 1.1 | -1.5 | -0.7
COc1ccccc1N(C)S(=O)(=O)c1ccc(C(=O)Nc2ccc(C(N)=O)cc2)cc1 | -2.9 | 16.8 | · | · | 17.2 | · | -0.7
CCOc1ccc(NC(=O)CSc2nncc(=O)n2N)cc1 | -5.0 | 95.7* | -1.9 | · | -5.0 | 1.0 | 3.1
O=C(COc1ccc(Cl)cc1)NNC(=O)c1ccc2c(=O)n3c(nc2c1)CCC3 | -2.0 | -4.6 | -2.7 | 1.5% | 4.8 | 1.8 | 1.1
CC(=O)c1cccc(S(=O)(=O)NC2CCSc3ccccc32)c1 (stereo not given) | -0.2 | · | 4.0 | · | 0.7 | 4.4 | 2.6
COc1ccc(N2C(=O)C3CCCN3C2c2cccc(C)c2)cc1Cl (stereo not given) | -1.9 | -5.0 | ? | 5.3% | -10.6 | -14.0 | 5.1
O=S(=O)(c1ccc(Cl)cc1)N1c2ccccc2Oc2nc3ccccc3nc21 | 2.0 | -18.7 | 3.7 | 20.5% | -0.5 | -4.9 | 2.9
COc1ccccc1NS(=O)(=O)c1cc(C(=O)NCc2ccncc2)ccc1C | -0.4 | · | 1.9 | 4.4% | -1.9 | 1.1 | 1.4
CCSc1nnc(NC(=O)CC)s1 | 2.2 | -2.0 | 0.4 | 0.8% | 0.2 | 7.3 | -0.6
CSc1nsc(SCC(=O)Nc2ccc3c(c2)OCCO3)n1 | -1.3 | 98.4* | 2.5 | 6.2% | 2.8 | -35.8 | -0.7
CC1CCN(C(=O)CCCN2C(=O)c3cccnc3Oc3ccc(Cl)cc32)CC1 | -2.1 | 0.2 | 0.5 | 3.7% | -5.0 | -1.2 | 2.9
CCc1c(C(=O)Nc2ccc(OC)cc2)[nH]c(C)c1C(C)=O | 7.5 | -7.1 | -1.1 | -3.7% | 7.7 | -28.4 | -0.1
Cc1cccc(NC(=O)CN2CCN(C(=O)C3CCN(C(=O)/C=C/c4ccccc4)CC3)CC2)c1C | i | 2.4 | · | 2.4% | -3.7 | · | 2.0
CCOC(=O)/C=c1/s/c(=C\c2c(OC)ccc3ccccc23)c(=O)n1CC(=O)NCC1CCCO1 (stereo not given) | · | · | · | 1.9% | 24.6 | · | 14.8
O=c1c(Cl)c(NCCO)cnn1-c1cccc(Cl)c1 | 0.5 | 4.1 | -3.9 | 2.7% | -3.4 | -9.6 | -5.7
O=C(Nc1cc(C(F)(F)F)ccc1Cl)C1CCN(c2nnc(-n3cccc3)s2)CC1 | · | · | · | 3.2% | 0.7 | · | 2.4
OC1CCC(Nc2ncnc3sccc23)CC1 (stereo not given) | 1.2 | -3.3 | -5.4 | · | 3.1 | -4.7 | -0.1
CCCCCc1nnc(NC(=O)CN2C(=O)C3CCCCC3C2=O)s1 (stereo not given) | -4.8 | -1.1 | 2.2 | 8.1% | 1.6 | -11.1 | -4.2
COc1ccc(S(=O)(=O)N2CCOC23CCN(S(=O)(=O)c2ccc(Cl)cc2)CC3)cc1 | 2.9 | -1.2 | -5.8 | -3.3% | -4.7 | -16.4 | 1.9
COc1ccc(S(=O)(=O)N2CCN(c3ccccn3)CC2)c(OC)c1 | -0.5 | -1.1 | 0.3 | · | -8.8 | 9.8 | -0.2
CCOC(=O)c1c(C)[nH]c(C)c1C(=O)CSc1nc2ccccc2c(=O)n1-c1ccccc1C | -7.5 | -8.5 | 1.2 | · | 17.8 | 3.9 | -0.9
COC(=O)[C@]1(S(=O)(=O)c2ccccc2)C[C@@H]2ON=C(c3ccc(OC)cc3)[C@@H]2C1 | 9.3 | · | 0.1 | · | 1.0 | 7.2 | 0.8
COc1cccc(OC)c1OCCCc1c(C)n[nH]c1C | 1.3 | -5.3 | 0.9 | 72.3% | -3.1 | -1.7 | -0.3
NC1=NS(=O)(=O)NC1c1ccc(Br)cc1 (stereo not given) | -8.8 | 7.8 | -0.1 | -3.9% | -4.8 | 17.8 | -0.3
O=C(C[n+]1cnn(CC(=O)c2ccc(Cl)cc2Cl)c1)c1ccc([N+](=O)[O-])cc1 | · | -7.7 | 2.9 | · | 7.5 | -1.3 | 1.9
O=C(C[n+]1ccccc1)N1c2ccccc2Sc2ccccc21 | -6.9 | 56.0 | ? | · | -2.4 | 11.8 | 0.4
CCN=C1S/C(=C\c2ccc(-c3cccc(C(=O)O)c3)o2)C(=O)N1CC | -1.4 | 2.4 | ? | 5.8% | 7.2 | 2.5 | 3.0
CCOc1ccc(S(=O)(=O)N2CCN(C)CC2)c(C)c1C | -0.6 | 1.7 | 0.0 | 5.1% | -0.3 | 13.4 | 0.6
Cc1cc(C(F)(F)F)c(C#N)c(SCC(=O)Nc2nc3ccccc3s2)n1 | -9.6 | · | -23.5 | 19.8% | -39.8 | -12.9 | 54.2
O=C(CS(=O)(=O)c1c[nH]c2ccccc12)N1CCCCC1 | 0.8 | -30.9 | -3.0 | 2.2% | 2.2 | -3.7 | -1.1
CC1=CCC(C(=O)O)(C(=O)N/N=C/c2cccs2)C(c2ccc(Cl)cc2)C1 (stereo not given) | -0.1 | 0.4 | -0.2 | 3.3% | 4.2 | -2.7 | -6.2
O=C1CN(S(=O)(=O)c2cc(C(=O)O)ccc2Cl)c2ccccc2N1 | -3.6 | 2.8 | 9.0 | · | -7.5 | 4.7 | 8.5
COc1ccc(NC(=O)CCC(=O)NCc2ccco2)c([N+](=O)[O-])c1 | 2.2 | 3.0 | -3.9 | · | 11.6 | -2.3 | -0.6
CCCCCCc1c(O)c2ccccc2[nH]c1=O | 2.9 | -10.9 | 4.5 | ? | 1.1 | -5.0 | -2.9
Cc1ccc(C)c(N/C=C(\C#N)c2nc3ccccc3o2)c1 | -1.7 | -9.7 | 4.3 | -6.1% | -9.8 | -6.4 | 3.5
CCOC(=O)c1[nH]cc(-c2ccccc2)c1N1CCOCC1 | 1.3 | 8.5 | · | 0.5% | -2.4 | · | 2.6
CN(c1ccccc1)S(=O)(=O)c1cccc(NC(=O)C2CC(=O)N(Cc3ccccc3)C2)c1 (stereo not given) | 2.7 | -7.5 | 2.2 | -1.3% | 8.7 | -4.3 | -2.5
COc1ccc(/C=C2\N=C(c3c(-c4ccccc4)noc3C)OC2=O)cc1OC | -1.8 | -5.5 | 5.7 | -0.8% | 6.4 | -4.3 | 1.0
CCOc1cccc(Oc2ccc(C(F)(F)F)cn2)c1 | -2.3 | 0.2 | -4.8 | 8.4% | 8.9 | 6.6 | 1.4
COc1ccc(-c2csc(NC(=O)c3ccccc3NS(=O)(=O)c3ccc(C)cc3)n2)cc1 | -2.9 | -6.7 | -0.7 | · | 20.2 | 5.8 | -5.0
CCN(CC)CCCNC(=S)N1CCN(c2nc3ccccc3n2CC)CC1 | 3.3 | 32.0 | 4.0 | · | -16.0 | -16.4 | -0.7
C/C(Cl)=C/Cc1c(C)[nH]c2c(ccc3ccccc32)c1=O | -1.3 | -6.3 | ? | · | -7.4 | -2.2 | 3.8
CCn1c(SCC(=O)Nc2nc3ccc(OC)cc3s2)nc2c1c(=O)n(C)c(=O)n2C | 3.4 | · | -2.3 | -5.0% | 14.5 | 1.5 | 5.1
COc1ccccc1Oc1nc([N+](=O)[O-])nn1CC(N)=O | -6.1 | · | -3.6 | -3.1% | -3.8 | -4.6 | -2.5
Cc1cc(-c2nnc(SCC(=O)Nc3ccccn3)o2)no1 | -5.1 | 41.9 | 1.1 | · | -3.1 | -1.6 | -10.8
CCn1cnc2sc(C(=O)Nc3ccc4c(c3)OCO4)c(C)c2c1=O | 0.9 | -7.9 | 2.9 | 0.5% | -16.6 | 11.0 | -2.5
CC(C)Cn1c(CNC(=O)c2ccccc2)nc2ccccc21 | 2.0 | 1.4 | -3.5 | -0.9% | -20.7 | -16.3 | -4.5
C#CCNC(=O)C1=C[C@H](C)C[C@H](OCc2ccc(CO)cc2)O1 | -2.0 | 3.4 | 1.6 | · | -6.4 | -1.4 | 3.7
O=C(COC(=O)c1ccc(NC(=O)C2CC=CCC2C(=O)O)cc1)c1ccccc1 (stereo not given) | -3.5 | 1.1 | ? | 2.2% | -3.8 | -2.6 | -2.5
Cc1ccc2c(c1)CCCN2S(=O)(=O)c1cccc(C(=O)Nc2ccccc2C(=O)O)c1 | 0.1 | 98.1* | -0.6 | · | 7.1 | 25.5 | -2.8
COc1cccc(NC(=O)CN(C)C(=O)CCc2nc3sc4c(c3c(=O)[nH]2)CCCC4)c1 | -2.9 | -7.9 | 4.3 | 3.0% | -12.8 | 2.3 | 2.1
COc1ccc(-c2cc(C(=O)Nc3cccc(C(C)=O)c3)no2)cc1 | · | · | 3.8 | -11.8% | 0.6 | -16.4 | -4.2

Only RanGTP-Impb inh and ALR inh, for some of the entries so far:
mol | RanGTP-Impb inh | ALR inh
COc1ccccc1Oc1nc([N+](=O)[O-])nn1CC(N)=O | -3.6 | ·
Cc1cc(-c2nnc(SCC(=O)Nc3ccccn3)o2)no1 | 1.1 | 41.9

From PubChem BioAssay
